Screens: PubChem, several laboratories
eIF4H FP inh = human eIF4H binding inhibitors, primary screen, translation initiation inhibitor project, biochemical, uHTS, fluorescence polarization | Eukaryotic translation initiation factor 4H (Homo sapiens), Q15056 | eIF4H fluorescence polarization binding assay | inhibition, % at 35 µM | hit rate 0.94% among 290,000;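 active = 50% or more with normal probe brightness, or confirmed in later tests; inconclusive = above 50% with abnormal brightness, or retests that disagree; inactive = below 50% or failed in later tests; about a fifth of its hits are not listed in these tables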;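 note: calls also rest on retests at 20 µM and on dose response follow-up; 0% = protein and probe with vehicle and 100% = probe without protein; strong numbers were not always called active; many hits fall short of the cut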
PABP polyA inh = PABP poly(A) RNA binding inhibitors, primary screen, biochemical, fluorescence polarization, uHTS; Polyadenylate-binding protein 1 (Homo sapiens), P11940; inhibition, % at 35 µM; hit rate 1% among 290,000; AID 2014, 2009;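 active = 50% or more with normal probe brightness, or confirmed in later tests; inconclusive = above 50% with abnormal brightness, or retests that disagree; inactive = below 50% or failed in later tests; about a fifth of its hits are not listed in these tables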;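 note: calls also rest on retests at 20 µM and on dose response follow-up; controls were probe without protein and protein plus probe with vehicle; some compounds called inactive have numbers as strong as hits; many hits fall short of the cut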
MT1-MMP act inh = blockers of MT1-MMP proenzyme processing, primary screen, HT1080 RFP-PRO-GFP cells, GFP/RFP fluorescence. GFP/RFP ratio fluorescence, overnight; percent of plate control window, DMSO zero. GFP/RFP ratio change, % at 20 µM. hit rate 0.061% among 360,000. AID 651647, 2012;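 active = GFP/RFP ratio change of at least 30% with cell ATP level not reduced by more than half and red fluorescence within 50% of control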; note: strong numbers were not always called active
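system = RFP-PRO-GFP reporter HT1080 cells | dosing = 20 µM single dose, 1% DMSO | timing = overnight cell settling, then overnight compound exposure, 37 °C, 5% CO2 | read-out basis = GFP/RFP fluorescence ratio | controls = DMSO and RFP-L50D-GFP cell wells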
Rce1 inh = yeast Rce1p protease inhibitors, primary screen, biochemical, fluorescence, cell-free homogeneous; CAAX prenyl protease 2 (Saccharomyces cerevisiae (strain ATCC 204508 / S288c)), Q03530; yeast membranes, quenched prenylated peptide cleavage fluorescence; calls only; hit rate 0.27% among 290,000;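 active = fall in fluorescence gain of 50% or more versus controls, with final raw signal at or below 3038400; inconclusive = same 50% fall but final raw signal above 3038400; inactive = fall in fluorescence gain under 50%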;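 note: plate controls were neutral control wells for no effect and wells lacking membranes for full effect; tested at 10 µM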
Target sequence (Q03530 whole entry, looked up): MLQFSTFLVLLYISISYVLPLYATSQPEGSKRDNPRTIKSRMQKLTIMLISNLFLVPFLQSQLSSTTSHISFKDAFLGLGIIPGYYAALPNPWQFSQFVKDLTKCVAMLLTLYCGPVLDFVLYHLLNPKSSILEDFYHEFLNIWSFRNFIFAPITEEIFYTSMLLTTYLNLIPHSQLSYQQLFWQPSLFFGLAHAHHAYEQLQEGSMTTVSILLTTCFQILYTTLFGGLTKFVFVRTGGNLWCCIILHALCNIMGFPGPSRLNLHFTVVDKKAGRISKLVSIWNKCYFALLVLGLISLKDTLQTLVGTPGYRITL
CSC inhib = cancer stem cell viability inhibitors, primary screen, luminescence; cancer stem cell-like cells viability; inhibition, % at 7.5 µM; hit rate 1.1% among 300,000; AID 2717, 2010;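 active = mean at 75% or more and at least half the replicates too; inconclusive = mean and replicates disagree; tested in HMLE shEcad cells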;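 note: 0% = median of negative and 100% = median of positive control wells; the first replicate is given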
UUG fidelity = modulators of yeast start codon fidelity, primary screen, whole organism, S. cerevisiae, single point, plate reader; S. cerevisiae UUG-firefly luciferase reporter, luminescence/redox ratio; activity score, % at 18.7 µM; AID 602363, 2012; hit rate 0.13% among 350,000;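 active = replicate mean at a twofold rise or more, about +100% in these data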;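 note: firefly luciferase made from a UUG start codon reports start codon fidelity; reporter light over untreated wells divided by growth signal over untreated wells; some hits fall short of that in this replicate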
Env fusion inh = inhibitors of HIV-1 Env-driven cell-cell fusion, primary screen, HeLa-JRFL effector, CEM21 target cells, luciferase; inhibition, % at 12.3 µM; hit rate 1.1% among 360,000; AID 651610, 2012;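 active = mean replicate inhibition score of at least 50 and every replicate individually at or above 50; inconclusive = only one of the two criteria met; inactive = mean below 50 and not all replicates reaching 50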;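 note: 0% = plate neutral controls and 100% = maraviroc near 300 nM; one replicate is shown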
eIF4H FP inh retest = recorded beside eIF4H FP inh, whose call it bears; inhibition, %; compound at 20 µM; confirmation average;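 mean of two retest wells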
PABP polyA inh retest = further read-out of PABP polyA inh, marked with its call; inhibition, %; compound at 20 µM; confirmation repeats;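 mean of two retest wells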
MT1-MMP act inh RFP = also measured in MT1-MMP act inh; calls as there; RFP signal change, %; measured here: RFP expression control read;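 0 = vehicle wells; hits needed this value within 50% of zero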
Starred values were filed as active, the others as inactive; i = inactive; ? = inconclusive; . = not tested or not shown.

SMILES	eIF4H FP inh	PABP polyA inh	MT1-MMP act inh	MT1-MMP act inh RFP	Rce1 inh	CSC inhib	UUG fidelity	Env fusion inh	others
COc1ccccc1CNC(=O)CCS(=O)(=O)c1cccc2nonc12	-4	-7	3	3	i	9	4	-44
CC1(C)CC(NC(=O)c2ccc(Br)o2)CC(C)(C)N1	7	4	-1	2	.	7	-19	-7
CCCC(=O)N1CCN(c2ccc(NC(=O)c3ccc([N+](=O)[O-])o3)cc2Cl)CC1	-18	3	-9	-26	i	.	.	-285
CN(C)c1ccc(C(=O)OCc2ccc(Br)cc2)cc1	-7	-5	2	0	i	-13	-6	.
COC(=O)c1ccccc1NC(=O)NCc1ccccn1	-14	-10	-4	1	i	-5	-19	-267
CCOc1ccc(CCNC(=O)C2CCCN(S(C)(=O)=O)C2)cc1OCC (stereo not given)	-5	-3	-3	1	i	-3	0	-4
Cc1ccc(-c2nc3c(C)cc(Br)cn3c2Cc2ccsc2)cc1	.	.	-1	-1	.	.	15	-144
CC(C)CC1NC(C(=O)O)Cc2c1[nH]c1ccccc21 (stereo not given)	-2	8	0	-2	i	-13	-21	13
Cc1cccc(NC(=O)CSCC(=O)N(C)Cc2ccc3c(c2)OCCO3)c1	.	.	4	1	.	.	-14	-4
Cc1ccc(CNC(=O)c2ccc(N3CCC4(CC3)CC(c3cccc(Br)c3)=NO4)c(NC(=O)c3cccc(C)c3)c2)cc1	.	.	5	5	.	9	-6	18
COc1cc(OC)c(N(C)C(=O)c2cn(C)c(=O)c3cc(OC)c(OC)cc23)cc1Cl	-5	-4	7	5	i	-14	12	13
CC1CCCCC1NC(=O)CCS(=O)(=O)c1ccc2c(c1)NC(=O)CS2 (stereo not given)	7	10	-2	3	i	-1	5	2
O=C(Nc1ccccc1)c1nn(-c2ccccc2)c(=O)cc1C(F)(F)F	?	?	-40	7	i	3	-11	.
C=CCn1c(COc2ccc(Cl)cc2)nnc1SCC(=O)NCC(=O)OCC	-2	2	3	0	i	4	-6	-44
CN(C(=O)COC(=O)c1nc(-c2ccccc2)n(-c2ccccc2)n1)C1CCS(=O)(=O)C1 (stereo not given)	6	16	16	6	i	-13	-18	-44
Cc1cc(C(=O)NCc2ccccc2F)c2ccccc2n1	1	1	-1	3	i	-10	.	9
CC(NC(=O)CCC(=O)c1ccc(F)cc1)C1CC2CCC1C2 (stereo not given)	4	-9	0	-1	i	-10	8	11
Cc1ccc(NC(=O)C(=O)c2c(-c3ccccc3)cc3ccccn23)cc1S(=O)(=O)N1CCOCC1	-9	-7	3	-11	i	13	-9	-27
Cc1c(NC(=O)CC2CC(C)OC2=O)c(=O)n(-c2ccccc2)n1C (stereo not given)	.	.	4	2	i	-16	-12	-12
CCC(O)CNC(=O)CCc1nnc(C2(c3ccc(Cl)cc3)CCC2)o1 (stereo not given)	-5	1	-3	1	i	-12	-14	-15
CCCn1c(=O)c(F)cn(Cc2ccc(OC)c([N+](=O)[O-])c2)c1=O	-6	-8	6	4	i	-9	-16	-10
NC(=O)c1ccc(NC(=O)CCc2nc3sc4c(c3c(=O)[nH]2)CCCC4)cc1	.	.	0	2	i	.	-20	-18
Cc1ccc(N2CC(C(=O)OCC(=O)Nc3ccccc3C)CC2=O)cc1 (stereo not given)	.	.	0	2	.	-3	-6	.
O=C1NC2(CCCCC2)C(=O)N1Cc1ccc([N+](=O)[O-])cc1	-12	-5	1	4	i	-11	.	27
COc1ccccc1C(=O)NC(=O)CSc1nnc2ccccn12	.	.	-1	0	.	-7	-6	10
CC(C)(C)OC(=O)C(Cl)(C(=O)OC(C)(C)C)c1ccc2nnnn2n1	4	5	-2	-3	i	.	.	-22
O=C(c1ccc(Cl)c(S(=O)(=O)N2CCCC2)c1)N1CCN(c2ccccc2)CC1	-6	-8	-3	-16	i	2	13	14
COc1ccc(NC(=O)Cc2ccc(-c3ccccc3)cc2)cn1	19	-1	-4	-5	i	59	.	-16
COc1cccc(NC(=O)C2(C)CCN2C(=O)Cc2ccc(-c3ccccc3)cc2)c1 (stereo not given)	.	.	12	-13	.	.	-24	17
COc1ccc(OC)c(S(=O)(=O)NC(N)=NCCc2ccccc2)c1	4	4	0	1	i	-2	-5	10

Gathered by group: the entries above with fluorine
SMILES	eIF4H FP inh	PABP polyA inh	MT1-MMP act inh	MT1-MMP act inh RFP	Rce1 inh	CSC inhib	UUG fidelity	Env fusion inh	others
O=C(Nc1ccccc1)c1nn(-c2ccccc2)c(=O)cc1C(F)(F)F	?	?	-40	7	i	3	-11	.
Cc1cc(C(=O)NCc2ccccc2F)c2ccccc2n1	1	1	-1	3	i	-10	.	9
CC(NC(=O)CCC(=O)c1ccc(F)cc1)C1CC2CCC1C2 (stereo not given)	4	-9	0	-1	i	-10	8	11
CCCn1c(=O)c(F)cn(Cc2ccc(OC)c([N+](=O)[O-])c2)c1=O	-6	-8	6	4	i	-9	-16	-10

Next section:
SMILES	eIF4H FP inh	PABP polyA inh	MT1-MMP act inh	MT1-MMP act inh RFP	Rce1 inh	CSC inhib	UUG fidelity	Env fusion inh	others
CC(C)(C)n1nnnc1C(c1ccccc1F)N1CCN(C(=O)c2ccco2)CC1 (stereo not given)	-5	-2	2	-3	i	2	-6	-5
O=C(NCc1cc(C(F)(F)F)cc(C(F)(F)F)c1)C1CC(c2ccccc2C(F)(F)F)=NO1 (stereo not given)	.	.	.	.	i	20	.	40
CC(Oc1ccc2c(c1)oc(=O)c1ccccc12)C(=O)NCCCN1CCOCC1 (stereo not given)	.	.	1	2	i	4	-2	12
CCOc1ccccc1N1CCN(S(=O)(=O)c2cccc3nsnc23)CC1	-5	-2	1	2	i	-6	-6	.
Cc1ccc(S(=O)(=O)N(C)CCCC(=O)NCc2ccc3c(c2)OCO3)cc1	-2	12	1	1	i	-4	-3	.
Cc1nc2ccc(-n3ccc(=O)cc3)cc2s1	1	-3	4	6	i	-10	-20	.
O=C(CCCN1C(=O)/C(=C/c2cccs2)SC1=S)Nc1cccnc1	-12	-5	5	-6	i	20	.	7
CS(=O)(=O)N(Cc1ccco1)CC(O)Cn1c2ccccc2c2ccccc21 (stereo not given)	-6	-8	-2	-7	i	5	-4	?
NC(=O)C1CCN(C(=O)/C=C/c2cccc(Br)c2)CC1	4	3	0	-1	i	-12	-14	-11
Cc1cc(S(=O)(=O)N2CCCC2)ccc1OCC(=O)NC1CCCC1	-5	-14	7	2	i	1	.	-5
CC1(Oc2cnc(Cl)c3ccccc23)CCN(Cc2ccc(-c3ccccn3)cc2)C1 (stereo not given)	.	.	-5	-7	.	.	-9	-24
Cc1ccc(OCC(=O)Nc2nnc(S(=O)(=O)N3CCCCCC3)s2)cc1C	-8	4	1	0	i	-4	-3	1
CC1(C)CC(=O)C2=C(C1)OC(N)=C(C#N)C21CCN(C(=O)OCc2ccccc2)CC1	3	9	-6	0	i	-18	-12	-11
CC1CCN(C(=O)COC(=O)CCc2c[nH]c3ccccc23)CC1	4	-12	-1	0	i	-3	.	1
CCn1c2ccccc2c2cc(C3C(C#N)=C(C)NC(C)=C3C#N)ccc21	-9	6	-2	-1	i	.	-18	0
Cc1ccc(C23OC(=O)C(C)(C)C2OC(=O)C3(C)C)cc1 (stereo not given)	3	3	9	2	i	-9	-10	34
Cc1nc2ccccn2c1C(=O)NN=C1C2CC3CC(C2)CC1C3	-6	-8	6	9	i	5	-19	-60
CCCCOc1ccc(C(=O)NCC(=O)NCc2ccncc2)cc1	.	.	5	1	i	-2	1	-26
O=C(NC1CC1)C1CCCN1C(=O)NC1CCCCC1 (stereo not given)	-1	-5	8	7	i	-3	.	7
Cc1ccc(S(=O)(=O)N2CCCOC2CNC(=O)C(=O)NCc2cccnc2)cc1 (stereo not given)	-1	2	-2	2	i	-1	.	-7

Next section (7 carried over from the part before).
SMILES	eIF4H FP inh	PABP polyA inh	MT1-MMP act inh	MT1-MMP act inh RFP	Rce1 inh	CSC inhib	UUG fidelity	Env fusion inh	others
CC1CCN(C(=O)COC(=O)CCc2c[nH]c3ccccc23)CC1	4	-12	-1	0	i	-3	.	1
CCn1c2ccccc2c2cc(C3C(C#N)=C(C)NC(C)=C3C#N)ccc21	-9	6	-2	-1	i	.	-18	0
Cc1ccc(C23OC(=O)C(C)(C)C2OC(=O)C3(C)C)cc1 (stereo not given)	3	3	9	2	i	-9	-10	34
Cc1nc2ccccn2c1C(=O)NN=C1C2CC3CC(C2)CC1C3	-6	-8	6	9	i	5	-19	-60
CCCCOc1ccc(C(=O)NCC(=O)NCc2ccncc2)cc1	.	.	5	1	i	-2	1	-26
O=C(NC1CC1)C1CCCN1C(=O)NC1CCCCC1 (stereo not given)	-1	-5	8	7	i	-3	.	7
Cc1ccc(S(=O)(=O)N2CCCOC2CNC(=O)C(=O)NCc2cccnc2)cc1 (stereo not given)	-1	2	-2	2	i	-1	.	-7
CCOC(=O)c1c[nH]c(=S)n(-c2ccccc2)c1=O	.	.	2	1	i	-18	-2	-19
CCOc1ccc(S(=O)(=O)NCCC(=O)OC(C)C(=O)N2CCc3ccccc32)cc1 (stereo not given)	3	3	2	-11	i	3	5	-18
COc1ccc(NC(=O)CSc2nccn2Cc2ccco2)cc1	3	-3	2	3	i	13	-26	-51
O=C(CN1C(=O)NC2(CCOc3ccccc32)C1=O)N1CCCCC1 (stereo not given)	.	.	-5	0	.	-12	-18	-8
Cc1ccsc1/C=N/Nc1nc(=O)[nH]nc1C	16	69	3	3	i	42	.	-50	eIF4H FP inh retest=-5;PABP polyA inh retest=5
O=C(Nc1ccccc1)N1CCCC1	-4	21	0	1	i	-5	-4	-15
Cc1ncc([N+](=O)[O-])n1Cc1cccc2ccccc12	4	-10	4	-3	i	-5	.	-20
Cc1ccc(NC(=O)CN(C)C(=O)c2ccc(COc3ccccc3)cc2)cc1	.	.	1	-4	i	-12	-18	-13
CCc1cccc(CC)c1N(COC)C(=O)Cn1nnc2ccccc21	-3	-4	1	0	i	0	-6	.
CCCCn1c(=O)[nH]c(=O)c2c1nc(-c1ccncc1)n2CCOC	-5	4	3	5	i	-16	19	.
Cc1cnc(C(=O)OCC(=O)N2c3ccccc3CC2C)cn1 (stereo not given)	6	4	1	2	i	-7	.	9
CCn1c(NC(=O)Nc2ccccc2OC)nc2ccccc21	-3	0	3	4	i	-4	-17	.
COc1ccc(Cl)cc1NC(=O)c1ccc2c(SCC(=O)O)c3c(nc2c1)CCCC3	-10	10	3	0	i	9	-7	7
O=C(COc1ccc(S(=O)(=O)NC2CCCCC2)cc1Cl)Nc1ccc2c(c1)OCO2	3	0	-4	-15	i	-5	18	16
Cc1cc(=O)oc2cc(OC(C)C(=O)O)c(Cl)cc12 (stereo not given)	10	1	15	1	i	0	-5	.
CCOC(=O)c1[nH]c2ccc(F)cc2c1NC(=O)C1=COCCO1	5	3	2	3	i	6	10	.

This is a random part of the collection; about 2.9% have a hit in one of these screens.
